Assay outcomes (PubChem)
Ecoli rRNA inh – inhibitors of bacterial rRNA selective over humanized ribosomes | E. coli WT GFP vs humanized-ribosome RFP mutants, fluorescence, 24 h; stronger effect = lower value; DMSO median 0, no signal -100 | 350,000 tested, 1.6% active | AID 720706 | GFP signal change (wild-type ribosome), % (concentration not given with the values);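 active = significant combined selectivity score with lowered wild-type GFP, culture density cut under 30%, mutant RFP and density less affected; inactive = any of these conditions unmet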; also: one replicate is shown; some compounds called inactive have numbers as strong as hits
FGF22 binding – FGF22 (human) thermal shift binding. Q9HCT0. recombinant FGF22 thermal shift, SYPRO orange fluorescence; percent of sucrose octasulfate shift, DMSO zero. calls only at 9.99 µM. 340,000 tested, 1.5% active;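 active = melting point raised past a set limit in the mean and every replicate; three in four hits are not shown here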
Target sequence (Q9HCT0 whole entry, looked up): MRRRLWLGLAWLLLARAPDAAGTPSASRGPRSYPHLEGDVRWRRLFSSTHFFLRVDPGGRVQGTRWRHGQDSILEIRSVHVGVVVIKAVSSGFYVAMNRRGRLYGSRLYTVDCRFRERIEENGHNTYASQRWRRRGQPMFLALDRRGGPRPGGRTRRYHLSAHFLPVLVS
Ecoli rRNA inh OD600 – recorded beside Ecoli rRNA inh, whose call it bears; OD600 change, %; measured here: OD600 growth;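 optical density of the mix in the first replicate; 0 = DMSO median and -100 = no signal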
Ecoli rRNA inh RFP – also measured in Ecoli rRNA inh; calls as there; RFP signal change, %; measured here: RFP humanized mutant strains;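 first replicate; 0 = DMSO median and -100 = no signal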
* hit, by the source's call; i = inactive; & = joins results of further samples. Not all compounds are listed. The share of hits here may be higher or lower than overall.

Second line of a record: Ecoli rRNA inh	Ecoli rRNA inh OD600	Ecoli rRNA inh RFP	FGF22 binding
Cc1noc(C)c1S(=O)(=O)Nc1ccc2c(c1)C(=O)N([C@H](C)CO)C[C@@H](C)[C@@H](CN(C)S(=O)(=O)c1cccs1)OCCCC[C@H](C)O2
→ -2	-8	-3.1	i
O=C(N[C@@H]1CC[C@@H](CCNC(=O)C2CC2)O[C@@H]1CO)c1ccncc1
→ 0	5	-1.2	i
CCN(C[C@H]1N[C@@H](CO)[C@@H]1c1ccc(-c2ccc(F)cc2)cc1)C(=O)COC
→ -1	-10	1.4	i
CO[C@@H]1CN(C)C(=O)c2cc(NC(=O)c3cccc(F)c3)ccc2OC[C@@H](C)N(C)C[C@@H]1C
→ 2	4	0.1	i
C[C@@H](NC(=O)C[C@@H]1CC[C@H]2[C@@H](COC[C@@H](O)CN2Cc2cc(F)ccc2F)O1)c1ccccc1
→ -1	-1	3.0	i
C[C@H](O)C#Cc1ccc([C@@H]2[C@@H](CO)N3CCCCN(C(=O)Nc4ccccc4)C[C@H]23)cc1
→ 6	23	-1.0	i
CCCNC(=O)C[C@H]1CC[C@@H]2[C@H](COc3ccc(NC(=O)NCC)cc3C(=O)N2C)O1
→ 5	9	-2.3	i
C[C@H]1CN([C@@H](C)CO)C(=O)c2cc(NC(=O)Nc3ccccc3)ccc2O[C@H]1CN(C)S(=O)(=O)c1ccccc1
→ -4	-16	5.6	i
CCC(=O)Nc1ccc2c(c1)OC[C@@H](C)N(Cc1nccs1)C[C@H](C)[C@@H](OC)CN(C)C2=O
→ 1	0	-2.3	i
O=C(Nc1ccc(-c2ccccc2)cc1)[C@@H]1[C@@H](CO)[C@@H]2Cn3c(cccc3=O)[C@@H]2N1CC1CCCCC1
→ 4	-5	14	i
O=C(NCC[C@H]1CC[C@@H](NC(=O)c2ccccc2F)[C@@H](CO)O1)c1cnccn1
→ -2	2	1.6	i
Cc1ccc(S(=O)(=O)Nc2ccc3c(c2)CC(=O)N([C@H](C)CO)C[C@H](C)[C@@H](CN(C)Cc2ccccc2)O3)cc1
→ -7	-56	22	i
Cc1noc(C)c1NC(=O)N[C@H]1CC[C@@H](CC(=O)Nc2ccccc2)O[C@H]1CO
→ -5	6	-1.7	i
C[C@H]1CN([C@@H](C)CO)C(=O)Cc2cc(NS(=O)(=O)c3ccc(Cl)cc3)ccc2O[C@@H]1CN(C)Cc1ccc(C(F)(F)F)cc1
→ -5	-5	-4.6	i
Cc1noc(C)c1S(=O)(=O)Nc1ccc2c(c1)C(=O)N([C@H](C)CO)C[C@@H](C)[C@@H](CN(C)S(C)(=O)=O)OCCCC[C@H](C)O2
→ -1	8	0.1	i

Entries shown so far that contain four or more nitrogen atoms, in the order listed:
Second line of a record: Ecoli rRNA inh	Ecoli rRNA inh OD600	Ecoli rRNA inh RFP	FGF22 binding
Cc1noc(C)c1S(=O)(=O)Nc1ccc2c(c1)C(=O)N([C@H](C)CO)C[C@@H](C)[C@@H](CN(C)S(=O)(=O)c1cccs1)OCCCC[C@H](C)O2
→ -2	-8	-3.1	i
CCCNC(=O)C[C@H]1CC[C@@H]2[C@H](COc3ccc(NC(=O)NCC)cc3C(=O)N2C)O1
→ 5	9	-2.3	i
C[C@H]1CN([C@@H](C)CO)C(=O)c2cc(NC(=O)Nc3ccccc3)ccc2O[C@H]1CN(C)S(=O)(=O)c1ccccc1
→ -4	-16	5.6	i
CCC(=O)Nc1ccc2c(c1)OC[C@@H](C)N(Cc1nccs1)C[C@H](C)[C@@H](OC)CN(C)C2=O
→ 1	0	-2.3	i
O=C(NCC[C@H]1CC[C@@H](NC(=O)c2ccccc2F)[C@@H](CO)O1)c1cnccn1
→ -2	2	1.6	i
Cc1noc(C)c1NC(=O)N[C@H]1CC[C@@H](CC(=O)Nc2ccccc2)O[C@H]1CO
→ -5	6	-1.7	i
Cc1noc(C)c1S(=O)(=O)Nc1ccc2c(c1)C(=O)N([C@H](C)CO)C[C@@H](C)[C@@H](CN(C)S(C)(=O)=O)OCCCC[C@H](C)O2
→ -1	8	0.1	i

Additional entries
Second line of a record: Ecoli rRNA inh	Ecoli rRNA inh OD600	Ecoli rRNA inh RFP	FGF22 binding
O=C(Nc1cccc(F)c1)N1CCCCN2[C@H](CO)[C@@H](c3ccc(C#CC4CC4)cc3)[C@@H]2C1
→ -45	-54	-1.3	i
O=C(C[C@@H]1C[C@@H]2c3cc(NS(=O)(=O)c4ccc(F)cc4)ccc3O[C@@H]2[C@@H](CO)O1)NCCc1ccccc1
→ -1	-20	5.3	i
CCS(=O)(=O)N1CC2(C1)[C@@H](c1ccccc1)[C@@H](CO)N2CC1CCCC1
→ -12	-3	3.6	i
C[C@@H]1CN([C@@H](C)CO)C(=O)c2cccc(N(C)C)c2O[C@@H]1CN(C)Cc1ccc(C(F)(F)F)cc1
→ -2	6	0.4	i
CCN1CCN(Cc2ccc(NC(=O)c3cccc(-c4ccc5nc(NC(=O)C6CC6)sc5n4)c3)cc2C(F)(F)F)CC1
→ -42	-64	4.0	i
COc1cccc(-c2cccc(-c3nc(C(=O)NCC(F)(F)F)cc4c3[C@H](CCO)N([S@@](=O)C(C)(C)C)C4)c2)c1
→ -6	-38	28	i
C[C@@H]1CN([C@@H](C)CO)C(=O)c2cccc(NC(=O)Nc3cccc4ccccc34)c2O[C@H]1CN(C)C(=O)Nc1cccc2ccccc12
→ 0	10	-1.0	i
CN(C)c1ccc2c(c1)[C@@H]1C[C@H](CC(=O)NCCN3CCCCC3)O[C@@H](CO)[C@@H]1O2
→ 4	4	2.0	i
C[C@H](CO)N1C[C@H](C)[C@@H](CN(C)C)Oc2cc(C#C[C@@H](C)O)ccc2S1(=O)=O
→ 5	15	-1.5	i
O=C(NC1CCCCC1)N1CC2(C1)[C@H](c1ccccc1)[C@H](CO)N2S(=O)(=O)Cc1ccccc1
→ -1	-2	-0.3	i
Cc1ccc(S(=O)(=O)N(C)C[C@@H]2OCCCC[C@@H](C)Oc3ccc(NC(=O)c4ccccc4)cc3C(=O)N([C@@H](C)CO)C[C@@H]2C)cc1
→ 1	0	-0.2	i
O=C(N[C@H]1CC[C@H](CC(=O)N2CCc3ccccc3C2)O[C@H]1CO)C1CCC1
→ -1	-2	-2.4	i
C[C@H]1CCCCO[C@H](CN(C)C(=O)Nc2ccc3c(c2)OCO3)[C@@H](C)CN([C@@H](C)CO)C(=O)c2cc(NS(=O)(=O)c3ccccc3)ccc2O1
→ 0	-1	-1.0	i
C[C@@H]1CN([C@@H](C)CO)C(=O)Cc2cc(NS(C)(=O)=O)ccc2O[C@H]1CN(C)C
→ 0	1	-0.8	i
CCC(=O)Nc1ccc2c(c1)C(=O)N(C)C[C@H](OC)[C@@H](C)CN[C@H](C)CO2
→ 3	9	-1.0	i

Second line of a record: Ecoli rRNA inh	Ecoli rRNA inh OD600	Ecoli rRNA inh RFP	FGF22 binding
C[C@@H]1CCCCO[C@@H](CN(C)S(=O)(=O)c2ccc(Cl)cc2)[C@@H](C)CN([C@H](C)CO)C(=O)c2cc(NC(=O)CCCN(C)C)ccc2O1
→ -1	5	0.0	i
O=C(CN1CCOCC1)N1[C@@H]2CNc3ccccc3[C@@H]2[C@@H]1CO
→ 3	2	-1.2	i
C[C@@H]1CN([C@H](C)CO)S(=O)(=O)c2ccc(C#CC(C)(C)O)cc2O[C@H]1CN(C)C(=O)CN(C)C
→ 0	3	2.9	i
C[C@@H]1CN([C@@H](C)CO)C(=O)c2cccc(NC(=O)Nc3ccc(F)cc3)c2O[C@H]1CN(C)Cc1ccc(Oc2ccccc2)cc1
→ -9	-1	0.4	i
COc1ccccc1C#Cc1cnc2c(c1)C(=O)N([C@@H](C)CO)C[C@@H](C)[C@H](CN(C)S(=O)(=O)c1cn(C)cn1)O2
→ -2	-8	2.4	i
CCCNC(=O)[C@@H]1[C@@H](CO)[C@@H]2Cn3c(ccc(-c4ccccc4)c3=O)[C@@H]2N1C(=O)C1CCC1
→ -1	6	0.5	i
COCC(=O)N(C)C[C@H]1Oc2ncc(C#Cc3ccc(F)cc3)cc2C(=O)N([C@H](C)CO)C[C@H]1C
→ 3	0	-1.3	i
CC(C)[C@@H](C)NC(=O)N(C)C[C@@H]1OCc2ccccc2-c2c(n(C)c3ccccc23)C(=O)N([C@@H](C)CO)C[C@@H]1C
→ 2	6	-3.2	i
O=C(Nc1ccccc1)[C@H]1[C@H](CO)[C@H]2Cn3c(cccc3=O)[C@H]2N1Cc1ccccc1Cl
→ -4	-10	-1.9	i
CC(C)C#Cc1ccc([C@H]2[C@@H](CO)N(C(=O)C3CCC3)[C@H]2C#N)cc1
→ 1	0	-0.3	i
C[C@H]1CN([C@@H](C)CO)C(=O)c2cc(NC(=O)CCN3CCOCC3)ccc2O[C@@H]1CN(C)S(C)(=O)=O
→ 2	3	-1.8	i
C[C@H](CO)N1C[C@H](C)[C@@H](CN(C)Cc2ccccc2)Oc2c(NC(=O)c3ccc(-c4nccs4)cc3)cccc2C1=O
→ -8	-14	0.7	i
COc1ccccc1NC(=O)N1CCCCN2[C@H](CO)[C@H](c3ccc(C#Cc4ccccc4)cc3)[C@@H]2C1
→ 6	8	-0.3	i
CCCNC(=O)Nc1ccc2c(c1)OC[C@H](C)N(C(=O)C1CC1)C[C@H](C)[C@@H](OC)CN(C)C2=O
→ 0	1	-0.3	i
Cc1noc(C)c1S(=O)(=O)N(C)C[C@@H]1Oc2ccc(NS(=O)(=O)c3cccs3)cc2C(=O)N([C@H](C)CO)C[C@@H]1C
→ 0	-7	1.6	i

canonical_smiles,Ecoli rRNA inh,Ecoli rRNA inh OD600,Ecoli rRNA inh RFP,FGF22 binding
Cc1noc(C)c1S(=O)(=O)Nc1ccc2c(c1)C(=O)N([C@@H](C)CO)C[C@@H](C)[C@@H](CN(C)Cc1ccccc1)OCCCC[C@@H](C)O2,2,-6,-0.1,i
O=C(C1CCCCC1)N1CC[C@@H]2[C@H](CO)Nc3ccc(C#Cc4ccc(F)cc4)cc3[C@@H]21,-3,3,7.5,i
O=C(C[C@@H]1CC[C@@H]2[C@H](COC[C@@H](O)CN2C(=O)Nc2ccc(C(F)(F)F)cc2)O1)NCC1CCCCC1,-58,-75,-16,i
CN1C(=O)c2cc(NS(C)(=O)=O)ccc2OC[C@@H]2O[C@@H](CC(=O)NC3CCCCC3)CC[C@@H]21,3,5,-0.3,i
O=C(C[C@H]1C[C@H]2c3cc(NC(=O)NC4CCCC4)ccc3O[C@H]2[C@H](CO)O1)NCc1ccccc1,4,6,1.1,i
COc1ccc2c3c([nH]c2c1)[C@@H](CO)N(C(=O)C1CCC1)CC31CCN(C(=O)NC(C)C)CC1,-2,13,-0.4,i
COc1ccc(NC(=O)N(C)C[C@H]2Oc3ncc(C#CCN(C)C)cc3C(=O)N([C@@H](C)CO)C[C@@H]2C)cc1,5,-4,1.5,i
Cc1cccc(CN(C)C[C@H]2OCc3cn(nn3)CCCC(=O)N([C@H](C)CO)C[C@H]2C)c1,-2,-5,-0.9,i
CN1c2ccc(Br)cc2[C@@H]2[C@@H](CCN2C(=O)Nc2ccc(F)cc2)[C@@H]1CO,-10,-12,-2.3,i
C[C@@H]1CN([C@@H](C)CO)S(=O)(=O)c2ccc(C#Cc3ccncc3)cc2O[C@H]1CN(C)C(=O)Nc1ccc2c(c1)OCO2,-7,-14,0.7,i
Cc1noc(C)c1NC(=O)N(C)C[C@@H]1OCCCC[C@@H](C)Oc2ccc(NC(=O)Nc3ccc4c(c3)OCO4)cc2C(=O)N([C@@H](C)CO)C[C@H]1C,-1,-5,0.8,i
O=C(C[C@@H]1CC[C@@H]2[C@H](COC[C@H](O)CN2S(=O)(=O)c2cccc(Cl)c2)O1)NC1CCCC1,0,9,-3.1,i
C[C@H](CO)N1C[C@H](C)[C@H](CN(C)C(=O)Nc2cccc(F)c2)OCc2ccccc2-c2ccccc2C1=O,0,-1,-3.6,i
COc1cccc(S(=O)(=O)N[C@H]2CC[C@@H](CC(=O)NC3CCC3)O[C@@H]2CO)c1,-1,2,-2.4,i
CN(C)C(=O)c1cccc(-c2ccc3c(c2)[C@H]2[C@H](CCN2Cc2ccccc2F)[C@H](CO)N3)c1,2,6,-1.3,i

canonical_smiles,Ecoli rRNA inh,Ecoli rRNA inh OD600,Ecoli rRNA inh RFP,FGF22 binding
C[C@H](CO)N1C[C@H](C)[C@H](CN(C)C(=O)C2CCCCC2)OCc2cnnn2CCCC1=O,11&3,12&2,1.4&-0.7,i
C[C@H](CO)N1C[C@H](C)[C@H](CN(C)C(=O)CN(C)C)Oc2ncc(-c3ccc(C#N)cc3)cc2C1=O,1,6,-0.9,i
C[C@H](CO)N1C[C@H](C)[C@@H](CN(C)Cc2ccncc2)Oc2ccc(NC(=O)Nc3ccccc3)cc2CC1=O,0,-9,3.3,i
C[C@@H]1CN([C@H](C)CO)C(=O)c2cc(NC(=O)Nc3ccc(F)cc3)ccc2O[C@@H]1CN(C)C(=O)NC1CCCCC1,-3,-6,-2.0,i
COc1ccc(NC(=O)N[C@@H]2CC[C@@H](CCn3cc(-c4ccccn4)nn3)O[C@@H]2CO)cc1,2,6,-0.6,i
C[C@H]1CN([C@@H](C)CO)C(=O)c2cc(NS(=O)(=O)c3cccs3)ccc2O[C@@H]1CN(C)C(=O)Nc1cccc2ccccc12,-6,1,10,i
COc1ccc2c3c([nH]c2c1)[C@H](CO)N(C(=O)c1ccccc1)CC31CN(Cc2cccnc2)C1,1,6,-0.2,i
C[C@@H]1CN([C@@H](C)CO)C(=O)c2cc(C#CCN(C)C)cnc2O[C@@H]1CN(C)C(=O)Cc1cccnc1,4,7,-2.7,i
